Bioassay records as filed in PubChem BioAssay.
NPYLR7 ag = activates Aedes aegypti NPYLR7 receptor; HEK293T NPYLR7/Galpha15, GCaMP6s calcium fluorescence; activation, % at 10 µM; 0.15% of 270,000 active; AID 1259423; in the data active = activation above about 40%;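 note: 0% = vehicle and 100% = reference agonist at the receptor; some compounds past the cut are filed as inactive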
NPYLR7 ag max-min = recorded beside NPYLR7 ag, whose call it bears; activation, %; measured here: Max-Min RFU normalised activation; some inactives read as strong as hits;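 span of the calcium signal over five minutes; 0% = vehicle and 100% = native peptide agonist; compound fluorescence can raise it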
Numbers without * were called inactive; & = joins results of further samples. The list is partial; rates above refer to the full screens.

cpd | SMILES | NPYLR7 ag | NPYLR7 ag max-min
1 | CCOC(=O)CN1C(=O)CCN(C(=O)OCC(C)C)CC(OC)c2ccccc21 (stereo unspecified) | 2 | 6
2 | O=C(CN1C(=O)CSC1c1ccc2c(c1)OCCO2)NCc1ccc(F)cc1 (stereo unspecified) | -2 | 7
3 | CCN1CCc2c(sc(NC(=O)CS(=O)(=O)c3ccccc3)c2-c2nc3ccccc3s2)C1 | 22 | 23
4 | NC(=O)C1CCCCN1C(=O)c1ccc(-c2ccc(F)cc2)s1 (stereo unspecified) | 3 | 0
5 | C=CCSC(C)C(=O)N1CCn2c(C(N)=O)cnc2C1 (stereo unspecified) | 20 | 4
6 | O=C(NCCS(=O)(=O)N1CCN(c2ccccn2)CC1)c1n[nH]c2ccccc12 | -8 | -9
7 | O=C(c1ccc(=O)n(Cc2ccc(F)cc2)n1)N1CCC(Cc2ccccc2)CC1 | 3 | -1
8 | O=C(c1cccc(-n2cccn2)n1)N(CC1CCCO1)C1CCCC1 (stereo unspecified) | -3 | 413
9 | O=C(O)CSc1nc2ccccc2n1CCOc1ccccc1 | 5 | 4
10 | O=C(O)c1ccc(-c2c(N3CCCC3)cn[nH]c2=O)s1 | 0 | 10
11 | CCSc1c(CC)cnc2c1c(=O)n(C)c(=O)n2C | 5 | 9
12 | C=CCn1c(=O)c2c(nc3n2CCCN3c2ccc(F)cc2)n(C)c1=O | -2 | -6
13 | CCN1CCN(Cc2nc3c(c(=O)n(C)c(=O)n3C)n2Cc2ccc(Br)cc2)CC1 | 1 | 17
14 | Cc1cc(NC(=O)c2ccc(C#N)cc2)n(-c2nc3c(F)cccc3s2)n1 | -9 | -13
15 | CCCCNC(=O)C(C)(C)n1cc(-c2ccc(C)cc2C)cn1 | -11 | -14
16 | CCOC(=O)CSc1nc2c([nH]c3ccccc32)c(=O)n1-c1ccc(C)cc1 | 0 | 20
17 | O=C(Cc1ccccn1)N1CCN(C(=O)c2cc(Cl)c[nH]2)CC1 | -5 | -6
18 | COc1ccccc1CC(C)N(Cc1ccccc1)C(=O)C1CCOC1 (stereo unspecified) | 2 | 0
19 | CN1CCN(c2nc3c(c(=O)[nH]c(=O)n3C)n2Cc2ccccc2)CC1 | 1 | 16
20 | C=CCN1C[C@@H]2C[C@@H](C(=O)OCC)N(C(=O)c3cccs3)c3cccc(c32)C1=O | 2 | 5
21 | Cc1ccsc1C(CNC(=O)c1cc(=O)[nH]c(=O)[nH]1)N(C)C (stereo unspecified) | 3 | 1
22 | COc1ccccc1-n1c(SCc2nc(C(=O)NCCc3ccc(Cl)cc3Cl)cs2)nnc1-c1ccncc1 | 2 | 6
23 | COc1ccc(C2=NOC(CNCc3cccc(C(F)(F)F)c3)C2)cc1OC (stereo unspecified) | -3 | -9
24 | COc1cccc(NC(=O)CCC2CCN(C(=O)CSc3ccccc3)CC2)c1 | 18&9 | 6&0
25 | O=C(C1CCN(Cc2nnnn2-c2ccccc2)CC1)N1CCCCCC1 | 6 | 7
26 | CC(C)(C)NC(=O)C1CCCN1c1nnc(N2CCCC2=O)s1 (stereo unspecified) | 6 | 4
27 | O=C(NCCN(CC(F)(F)F)C(=O)c1ccc(Cl)cc1)c1ccc(Cl)cc1 | -1 | 0
28 | Cc1ccc(-c2cc(NC(=O)c3ccc(F)cc3Cl)n(-c3ccccc3)n2)cc1 | 16 | 6
29 | COc1ccc(CCNC(=O)N2CCCCC2CN2CCOCC2)cc1 (stereo unspecified) | 13 | 9
30 | CCc1ccc(NC(=O)C(=O)NCc2cccc(OC)c2)cc1 | 33 | 27
31 | CCCN(CC1CC1)C(=O)COC(=O)c1[nH]c(C)c(C(=O)OCC)c1C | 0 | -2
32 | Cc1cc2occ(CC(=O)N3CCNC(=O)C3)c2cc1C(C)C | 3 | 1
33 | CCCCN(Cc1ccccc1)C(=O)c1cc(-c2cc(OC)c(OC)c(OC)c2)nc2ccccc12 | 11 | 2
34 | CCOC(=O)CCC(=O)Nc1ccc(-n2nc(OCC)nc2-c2ccccc2C)cc1 | -5 | -5
35 | CC(C)(C)CC(C)(C)Nc1c(-c2ccccc2OC(=O)CCc2ccccc2)nc2ccccn12 | 16 | 8
36 | CCOc1cccc(OCCOc2cccc(Br)c2)c1 | -7 | 4
37 | COc1cc(-c2ccnc(N3CCN(C(=O)COc4cccc(Cl)c4)CC3)n2)cc(OC)c1OC | 8 | 1
38 | COc1ccc(/C=N\Nc2cc(N(C)C)nc(N(C)C)n2)cc1 | -5 | -2
39 | CNC(=O)Oc1ccc2c(c1)[C@]1(C)CCN(C)[C@@H]1N2C | -12&-5&-5&-7&-8 | -16&-12&-9&-2&-13
40 | CC1CC(C)CN(C(=O)C2CCN(S(=O)(=O)c3ccc4c(c3)CCC4)CC2)C1 (stereo unspecified) | 3 | 10
41 | Cc1cn2c3c(=O)n(CCCc4ccccc4)c(=O)n(C)c3nc2n1Cc1ccco1 | 1 | 6
42 | C=CC(C)(O)CN(Cc1ccccc1OC)C1CC1 (stereo unspecified) | 25 | 33
43 | COc1ccc(Cl)cc1NC(=O)CSc1nc2c(cnn2CCO)c(=O)[nH]1 | 4 | 2
44 | CC(C)c1cc(Cn2ccnc2-c2ccc(C3CCCCO3)o2)on1 (stereo unspecified) | 17 | 5
45 | Cc1cccc(OCC(=O)Nc2ccc3c(c2)OCC(C)(C)C(=O)N3CCC(C)C)c1 | -1 | -2
46 | COC(=O)c1[nH]ncc1CN1CCN(Cc2cccc(F)c2)CC1 | 3 | 2
47 | CCC(O)CN(CCCOC)Cc1cccn1Cc1ccc(C(C)(C)C)cc1 (stereo unspecified) | 29 | 36
48 | CO/N=C(/C(=O)NCCc1ccccc1)c1csc(NC=O)n1 | 6 | 4
49 | Cc1ccc(NC(=O)c2cccs2)cc1N1CCCS1(=O)=O | -4 | -4
50 | NC(=O)c1sc(=S)n(-c2ccccc2)c1N | -14 | -21
51 | O=C(COC(=O)C=Cc1ccco1)NCCN1C(=O)CSC1=O | -2 | -5
52 | O=C(Nc1ccccc1)c1nnc(/C(Cl)=C\c2cccnc2)s1 | 6 | 5
53 | O=C(NCCc1nc(-c2ccncc2)n[nH]1)C1(c2ccccc2F)CC1 | 26 | 11
54 | CCOC(=O)C1(Cc2ccccc2)CCCN(Cc2ccn[nH]2)C1 (stereo unspecified) | -1 | -5
55 | O=C(O)C1C2CC3C1C(=O)Oc1ccc(Br)cc1C1c4sc(=O)[nH]c4SC2C13 (stereo unspecified) | 13 | 3
56 | CC(C)(C)C(=O)N=c1c2c3c(sc2nc2n1CCCCC2)CCCC3 | 5 | 3
57 | Cc1c(-c2cc(C(=O)N3[C@@H]4CC[C@H]3CN(C)C(=O)C4)no2)cnn1C | 3&16 | 0&7
58 | COCc1cc(N2CCN(C/C=C/c3ccccc3)CC2)nc(SCc2ccc(C(=O)NC3CC3)o2)n1 | 7 | 10
59 | CC(C)CCN(CC(=O)N1CCc2sccc2C1c1ccc(Cl)cc1Cl)C(=O)Cc1cccs1 (stereo unspecified) | -5 | -3
60 | Cc1c(CCNS(=O)(=O)c2ccc3c(c2)OCCO3)sc2nc(-c3ccc(F)cc3)nn12 | 1 | 1

Excerpt: entries 19–35
cpd | SMILES | NPYLR7 ag | NPYLR7 ag max-min
19 | CN1CCN(c2nc3c(c(=O)[nH]c(=O)n3C)n2Cc2ccccc2)CC1 | 1 | 16
20 | C=CCN1C[C@@H]2C[C@@H](C(=O)OCC)N(C(=O)c3cccs3)c3cccc(c32)C1=O | 2 | 5
21 | Cc1ccsc1C(CNC(=O)c1cc(=O)[nH]c(=O)[nH]1)N(C)C (stereo unspecified) | 3 | 1
22 | COc1ccccc1-n1c(SCc2nc(C(=O)NCCc3ccc(Cl)cc3Cl)cs2)nnc1-c1ccncc1 | 2 | 6
23 | COc1ccc(C2=NOC(CNCc3cccc(C(F)(F)F)c3)C2)cc1OC (stereo unspecified) | -3 | -9
24 | COc1cccc(NC(=O)CCC2CCN(C(=O)CSc3ccccc3)CC2)c1 | 18&9 | 6&0
25 | O=C(C1CCN(Cc2nnnn2-c2ccccc2)CC1)N1CCCCCC1 | 6 | 7
26 | CC(C)(C)NC(=O)C1CCCN1c1nnc(N2CCCC2=O)s1 (stereo unspecified) | 6 | 4
27 | O=C(NCCN(CC(F)(F)F)C(=O)c1ccc(Cl)cc1)c1ccc(Cl)cc1 | -1 | 0
28 | Cc1ccc(-c2cc(NC(=O)c3ccc(F)cc3Cl)n(-c3ccccc3)n2)cc1 | 16 | 6
29 | COc1ccc(CCNC(=O)N2CCCCC2CN2CCOCC2)cc1 (stereo unspecified) | 13 | 9
30 | CCc1ccc(NC(=O)C(=O)NCc2cccc(OC)c2)cc1 | 33 | 27
31 | CCCN(CC1CC1)C(=O)COC(=O)c1[nH]c(C)c(C(=O)OCC)c1C | 0 | -2
32 | Cc1cc2occ(CC(=O)N3CCNC(=O)C3)c2cc1C(C)C | 3 | 1
33 | CCCCN(Cc1ccccc1)C(=O)c1cc(-c2cc(OC)c(OC)c(OC)c2)nc2ccccc12 | 11 | 2
34 | CCOC(=O)CCC(=O)Nc1ccc(-n2nc(OCC)nc2-c2ccccc2C)cc1 | -5 | -5
35 | CC(C)(C)CC(C)(C)Nc1c(-c2ccccc2OC(=O)CCc2ccccc2)nc2ccccn12 | 16 | 8

Additional compounds:
61. COc1ccc(CCN(C(=S)Nc2ccccc2)C2CC(=O)N(c3ccc(OC)cc3)C2=O)cc1 (stereo unspecified)
62. Cc1ccc(C(=O)Nc2cccc(Cl)c2-n2cncn2)cn1
63. CCCCCNC(=O)c1cc(-c2ccccc2)nc2cc(C(C)(C)C)nn12
64. CCc1ccccc1NC(=O)Cn1nc(-c2ccccc2)c2sc(N3CCCCC3)nc2c1=O
65. CCn1cc(SC(=N)N)c2ccccc21
66. CCOc1ccc(-n2c(SCC(=O)Nc3nccs3)nc3c([nH]c4ccccc43)c2=O)cc1
67. CCOc1cc(/C=C2\C(=O)N(c3cccc(Cl)c3)N=C2C)ccc1OC(C)=O
68. CCCCn1cnc2c(-c3ccccc3)cn(CC(=O)NC3CCCC3)c2c1=O
69. COc1ccc(C2=NN(c3ccc(/C=C/C(=O)c4ccccc4)cc3)CC2)cc1
70. CC1CC(C)CN(c2ncnc3c2nc2n3CCCCC2)C1 (stereo unspecified)

entry no.	61	62	63	64	65	66	67	68	69	70
NPYLR7 ag	0	-1	15	-2	-7	0	0	5	-10	5
NPYLR7 ag max-min	0	-2	17	-7	-12	21	11	7	-13	-1

71. CCn1nccc1C(=O)N1CC(=O)Nc2ccccc21
72. CC1OC1P(=O)(O)O (stereo unspecified)
73. COc1cc(CC(=O)N2CC[C@H](CO)[C@H](O)C2)cc(OC)c1
74. O=C(c1csnn1)N1CCc2[nH]nc(-c3ccc(-c4ccccc4)cc3)c2C1
75. CCCC(=O)N(CCCN(C)C)c1nc2c(OC)ccc(Cl)c2s1
76. O=[P+](C1C2CC3CC(C2)CC1C3)C12CC3CC(CC(C3)C1)C2 (stereo unspecified)
77. Cc1ccc(Nc2nc(NCCN3CCOCC3)nc3c2cnn3C)cc1
78. CNC(=O)C1c2c(OC)ccc3c2C(=CC(C)(C)CO3)CN1C (stereo unspecified)
79. O=C1/C(=C/c2ccco2)N=C(N2CCCCC2)N1c1cccc(Cl)c1
80. Cn1cc(-c2ccc(-c3nc(CCCc4ccccc4)no3)cn2)cn1

entry no.	71	72	73	74	75	76	77	78	79	80
NPYLR7 ag	2	33&-4&1	0	17	10	13	4	3	6	4
NPYLR7 ag max-min	4	26&-7&0	0	9	6	12	0	13	4	-5

81. CC(=O)Oc1ccccc1Cn1c(C)c(C(=O)NCc2ccc3c(c2)OCCO3)sc1=O
82. CN(C)c1nc2c(c(=O)[nH]1)CCN(C(=O)C1CCCO1)C2 (stereo unspecified)
83. Cc1noc(C)c1C(=O)N1CCCC(N2CCN(Cc3ccc4c(c3)OCO4)CC2)C1 (stereo unspecified)
84. O=C(CN(Cc1ccco1)S(=O)(=O)c1ccc(F)cc1)N1CCc2sccc2C1c1ccc(Cl)cc1Cl (stereo unspecified)
85. CNC(=O)CN1CC2N(C(=O)C3CC3)C3CCC2(CC3)OC1=O (stereo unspecified)
86. COc1ccc(C2CC(=O)C3C(=Nc4ccccc4NC3c3c[nH]c4ccccc34)C2)cc1 (stereo unspecified)
87. Cn1cc(CN2CCC(C(=O)NC(c3ccc(Cl)cc3)c3cnccn3)CC2)c2ccccc21 (stereo unspecified)
88. O=C1c2ccc(Br)cc2C(=O)N1CNc1cc(Cl)ccc1Cl
89. O=C1CSC(c2ccccc2Br)N1c1cccc(C(F)(F)F)c1 (stereo unspecified)
90. CC(=O)Nc1ccccc1NC(=O)CNCc1cccc(OC(F)(F)F)c1

entry no.	81	82	83	84	85	86	87	88	89	90
NPYLR7 ag	0	3	5&-4	-2	9	-5	-2	2	-5	3
NPYLR7 ag max-min	-2	0	3&-5	7	13	-7	-3	-4	-10	2

91. O=C(CNC1CCCCC1)N(Cc1ccccc1)Cc1cccs1
92. CC(C)CN(CC(=O)Nc1cc(C(C)(C)C)nn1C(C)(C)C)C(=O)Nc1ccc(Cl)c(Cl)c1
93. Cn1c(=O)c2c(nc(CN3CCCCC3)n2CC(N)=O)n(C)c1=O
94. Cn1c(Sc2cc(Cl)nc(N)n2)nnc1C1CC1
95. OCCC1CN(Cc2ccncc2)CCN1CC1CCCCC1 (stereo unspecified)
96. Cc1nc(N2CCN(c3ncccn3)CC2)nc2c1C(=O)CC(c1ccc(F)cc1)C2 (stereo unspecified)
97. COc1cc(C=C2N=C(c3ccc(C)c(C)c3)OC2=O)cc(Br)c1OC(C)=O
98. Cc1ccc([N+](=O)[O-])cc1S(=O)(=O)N(C)CCCN(C)C
99. COc1cccc(-c2nnc(SCC(=O)N3CCN(C(=O)c4cc(C(F)(F)F)cc(C(F)(F)F)c4)C(C)C3)n2-c2ccccc2)c1 (stereo unspecified)
100. O=C(Oc1ccc([N+](=O)[O-])cc1)c1cccc2ncccc12
101. Cc1cnc(C)c(N2CCN(Cc3cn(C)nc3-c3cccc(Cl)c3)CC2)n1
102. CC(=O)c1c(C)[nH]c(C(=O)C(C)N2CCCc3cc(OC(F)F)ccc32)c1C (stereo unspecified)
103. Cc1cc(NC(=O)Cc2c(C)nn(C(F)F)c2C)sn1

entry no.	91	92	93	94	95	96	97	98	99	100	101	102	103
NPYLR7 ag	-11	-3	0	-1	19	-1	3	-6	18	8	-8	1	-2
NPYLR7 ag max-min	-20	6	0	4	9	3	4	-10	19	6	-9	23	-4
